# Assay outcomes (PubChem)
# miR-21 FLuc: raises the signal of a miR-21 reporter; HeLa miR-21 FLuc reporter, luciferase, 48 h; Potency, µM (top dose mostly 38.3 µM), for inactives: at the highest dose reporter change, positive = more light; 340,000 tested, under 10 active; AID 2288; active = well fitted rising curve with a large enough effect; inconclusive = small, poorly fitted or top-dose-only effect; inactive = no such curve, though single readings can be large or run the other way;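 note: % of control where 0% means no effect; miR-21 action dims this reporter so a rising signal means less miR-21 action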
#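 Luminescence from a firefly luciferase reporter carrying a miR-21 binding site downstream, stably expressed under a CMV promoter in HeLa cells that make miR-21 endogenously, reports miRNA modulation after 48 h compound exposure up to approximately 40uM final.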
# The depositor's hits bear a star; ? = inconclusive. This is a subset. The share of hits here may be higher or lower than overall.
SMILES,miR-21 FLuc
O=C(CSc1nc(-c2ccccc2)no1)N1CCN(c2ccc(F)cc2)CC1,5.3%
COc1ccc(-c2noc(-c3ccc(N4CCN(c5ccc(OC)cc5)CC4)c([N+](=O)[O-])c3)n2)cc1,-10.6%
Cc1cccc(NC(=O)c2cn(-c3ccccc3)nc2-c2ccccc2)c1C,0.5%
CCOC(=O)c1cccc(NC(=O)NCc2ccc3c(c2)CCN3C(=O)c2ccccc2)c1,-0.6%
COc1ccc(N2CCN(C(=O)CSCc3nc(-c4ccccc4Cl)oc3C)CC2)cc1,0.1%
COc1ccc(Nc2c(-c3ccc(Cl)cc3)nc3cnccn23)cc1OC,8.3%
CCOc1ccc(-c2nnc(SCC(=O)NCc3ccccc3)o2)cc1,1.9%
CC(C)CCn1c(=O)c2sccc2n2c(CCCC(=O)NC(C)c3ccccc3)nnc12 (stereo not given),3.2%
CCOC(=O)Cn1c(=O)n(CC2CCCO2)c2nc(-c3ccc(C(C)C)cc3)nc(C(N)=O)c21 (stereo not given),0.0%
CCOC(=O)c1oc2c(c1C)-c1nn(Cc3cccc(Cl)c3)cc1CC2,7.8%
CC(C)Cc1nn2c(=O)cc(COC(=O)c3ccc(NC(=O)C4CCCCC4)cc3)nc2s1,-0.3%
CCOc1ccc(-c2c(C)nn3c(C)c(C(=O)NCCc4ccc(Cl)cc4)cnc23)cc1OCC,18.5%
Cc1ccc(-c2nc3ccccc3[nH]2)cc1NC(=O)COc1ccccc1[N+](=O)[O-],-22.8%
Cc1ccc(NS(=O)(=O)c2ccc(-c3cc(C)no3)cc2)c(Br)c1,21.8%
CN(C)c1ccc(CNc2nc(-c3ccco3)nn2C(=O)c2cccc([N+](=O)[O-])c2)cc1,-47.2%
COc1ccccc1N1CCN(S(=O)(=O)c2ccc(F)c(C(=O)Nc3ccc(Cl)cc3C(F)(F)F)c2)CC1,12.4%
O=C(CSc1c2c(nc3cc(Cl)ccc13)CCCC2)NCc1ccccc1Cl,?
COc1ccc(CNC(=O)CCn2c(=O)c3cccn3c3ccc(F)cc32)cc1OC,-5.3%
CN(Cc1ccccc1)C(=O)CSc1nc2ccccc2n1Cc1ccccc1F,-2.9%
CCCn1c(NCc2ccccc2F)nc2ccccc21,-36.6%
Cc1ccc(-n2nc(-c3ccccc3)c3cnc4cc5c(cc4c32)OCO5)cc1C,-5.8%
CCOC(=O)c1[nH]c(C)c(CCC(=O)Nc2ccccc2OCC)c1C,23.1%
Cc1ncc(CO)c2c1Oc1nc(-c3ccccc3)nc(SCC(=O)Nc3cccc(C(F)(F)F)c3)c1C2,0.2%
O=C(Nc1ccc(Br)c(Cl)c1)c1ccc(C(=O)Nc2ccc(Br)c(Cl)c2)cc1,-8.6%
Cc1cccc(CSc2nc3cc(C(=O)NC4CCCC4)ccc3c(=O)n2Cc2ccccc2)c1,-1.5%
CCOC(=O)c1[nH]c2ccccc2c1NC(=O)c1ccccc1OCC,?
Cc1ccc(Cn2c(=O)n(CCCC(=O)NCc3ccccc3Cl)c(=O)c3ccccc32)cc1,-4.5%
COc1ccc(CSc2nc3ncccc3[nH]2)cc1,-31.3%
O=C(Cn1cc(SCc2ccccc2)c2ccccc21)N1CCCCCC1,-20.0%
COc1ccccc1CNC(=O)c1cnc(N(C)C)nc1,1.2%

# Structures listed so far with a furan ring, fused or not (two):
SMILES,miR-21 FLuc
CCOC(=O)c1oc2c(c1C)-c1nn(Cc3cccc(Cl)c3)cc1CC2,7.8%
CN(C)c1ccc(CNc2nc(-c3ccco3)nn2C(=O)c2cccc([N+](=O)[O-])c2)cc1,-47.2%

# Further compounds.
SMILES,miR-21 FLuc
CCc1ccc(NC(=O)c2nc3nc(C)cc(C(F)F)n3n2)cc1,-28.6%
Cc1ccc(S(=O)(=O)N(CC(=O)NCCSc2ccc(Cl)cc2)c2cccc(Cl)c2)cc1,?
COc1ccccc1C(=O)NCCn1cc(SCc2ccc(C)cc2)c2ccccc21,?
COc1ccccc1Nc1cc(C(=O)NCCCN(C)c2ccccc2)c2ccccc2n1,15.2%
COc1ccc(-c2nnc(SCC(=O)Nc3ccc(C)c(C)c3)s2)cc1,-14.3%
CC(=O)c1cccc(NC(=O)c2c(C)nn(-c3ccc(F)cc3)c2-n2cccc2)c1,?
CCC(C)Sc1oc(-c2ccco2)nc1S(=O)(=O)c1ccc(Cl)cc1 (stereo not given),1.4%
COc1cc(OC)c(NC(=O)CSC2=Nc3ccccc3N=C(c3ccc(F)cc3)C2)cc1Cl,-3.9%
Cc1ccc(C)c(N2CCN(CCCNC(=O)Cn3ncc4c5ccccc5n(C)c4c3=O)CC2)c1,28.2%
Cc1ccc(C)c(N2CCN(C(=O)c3cc4c(=O)n(Cc5ccccc5)ccc4nc3C)CC2)c1,13.0%
CCOC(=O)C1CCC(CN(Cc2c(Cl)cccc2Cl)S(=O)(=O)c2ccc(F)c(C)c2)CC1 (stereo not given),7.6%
COc1ccc(-c2noc(-c3ccc(N4CCC(C)CC4)c([N+](=O)[O-])c3)n2)cc1OC,28.3%
Cc1ccc(OCC(=O)Nc2ccc(OCc3cc(=O)n4c(C)csc4n3)cc2)cc1C,-2.2%
CCOc1cc(CNC(=O)c2ccccc2NC(=O)c2nsc3ccccc23)ccc1OC,-5.7%
CCOc1ccc(CCNC(=O)C2=C(C)C(=O)OC23CCCCC3)cc1,4.2%
CC1=C(C(=O)Nc2cc(Cl)ccc2C)C(c2ccco2)n2ncnc2N1 (stereo not given),-1.0%
Cc1ccc(NCc2nc3ccccc3n2CCOc2ccccc2C)cc1,-5.9%
Cc1cc(C)cc(OCC(=O)Nc2cccc(-c3nc4ccccc4[nH]3)c2)c1,14.5%
Cc1ccc(C)c(-c2nn(CC(=O)Nc3cc(F)ccc3F)c(=O)c3c2CCCC3)c1,11.3%
CCS(=O)(=O)c1nc(S(=O)(=O)c2ccc(C)cc2)c(NC)s1,-2.7%
COc1cccc(Nc2c3c(nc4nncn24)CCC3)c1,-30.6%
CCOc1ccc(NC(=O)CN2C(=O)COc3ccc(S(=O)(=O)NC4CCCC4)cc32)cc1,3.2%
COc1ccccc1/C=C/c1onc(C)c1S(=O)(=O)N1CCC(C(=O)N2CCC(C)CC2)CC1,-0.9%
O=C(CSc1nc2c(c(=O)[nH]1)CN(Cc1ccc3c(c1)OCO3)CC2)Nc1ccc(F)c(F)c1,-4.3%
COc1ccc(NC(=O)CSc2nc3c(c(=O)[nH]2)CN(Cc2ccccc2)CC3)cc1Cl,-7.6%
COc1ccc(N2CCN(C(=O)CCNS(=O)(=O)c3ccc4c(c3)CCN4C(=O)C3CC3)CC2)cc1,3.4%
Cc1ccc(Nc2c(-c3ccc(N(C)C)cc3)nc3nc[nH]n23)cc1,3.4%
Cc1ccccc1NC(=O)Cn1c(=O)n(Cc2ccco2)c(=O)c2ccc(C(=O)NC3CCCC3)cc21,-4.0%
C#CCn1cnc2c(cnn2-c2ccc(F)cc2)c1=O,-18.6%
CC1CCN(S(=O)(=O)c2ccc3c(c2)CCN3C(=O)Nc2ccc(Br)cc2F)CC1,-4.5%
O=C(CN1C=NS(=O)(=O)c2ccccc21)Nc1ccccc1F,-4.1%
O=C1/C(=C\c2ccco2)SC(=S)N1C1CCCCC1,-3.0%
CCNC(=O)CC1C(=O)N(c2ccc(C)cc2)C(=O)N1Cc1ccc(C)cc1 (stereo not given),0.2%
CCOC(=O)c1c(NC(C)=O)c2c3c(sc2n1Cc1nc(-c2ccccc2C)oc1C)CCCC3,-6.3%
Cc1ccc(S(=O)(=O)Cc2nc(-c3ccc(C(=O)NCc4ccccc4)cc3)oc2C)cc1,-8.2%
Cc1cc(=O)n2c(C(=O)Nc3ccc(F)c(Cl)c3)c(C(=O)Nc3cccc(C)c3C)sc2n1,-0.9%
COc1ccc(N2CC(NC(=O)C3CCCCC3)CC2=O)cc1 (stereo not given),-1.5%
CCCCC12CN3CC(C)(CN(C1)C3c1ccc(O)c(OC)c1)C2=O (stereo not given),-1.3%
COc1ccccc1C(=O)Nc1c(C(=O)N2CCN(c3ccccc3F)CC2)oc2ccccc12,-1.1%
COC(=O)C(C)NC(=O)N1CCN(c2nnc(C)c3c(C)n(-c4ccc(Cl)cc4)nc23)CC1 (stereo not given),-2.9%
CCC(C)(C)NC(=O)C1CCC(CNS(=O)(=O)c2ccc3c(c2)CC(C)N3C(C)=O)CC1 (stereo not given),0.0%
O=C(CSc1nnc(-c2cccc(F)c2)c(-c2cccc(F)c2)n1)NC1CCCCC1,2.7%
COc1cc2oc(=O)c(CC(=O)NCc3ccc(OC)c(OC)c3)c(C)c2cc1Cl,-2.0%
COC(=O)c1sccc1S(=O)(=O)N(CC(=O)NCc1ccc(F)cc1)c1ccc(Cl)cc1,11.4%
COc1ccccc1N1CCN(S(=O)(=O)c2cc(-c3cc(C)no3)ccc2C)CC1,-1.8%
O=C(NCc1cccc(Cl)c1)C1CCN(c2nn3cc(-c4ccc(F)cc4)nc3s2)CC1,-30.4%
COc1ccc(CCNC(=O)c2cc(=O)[nH]c3ccc(S(=O)(=O)N4CCCCC4)cc23)cc1OC,-10.1%
Oc1ccc(-c2nc(-c3ccccc3)c(-c3ccc(Br)cc3)[nH]2)cc1,19.4%
O=C(NC1CC(=O)N(c2ccc(Cl)cc2)C1)c1cc2ccccc2o1 (stereo not given),-0.1%
Cn1nnc2c(NCCc3ccccc3)ncnc21,-12.0%
CCOC(=O)C1=C(CNCc2ccc(Cl)cc2)NC(=O)NC1c1ccccc1 (stereo not given),19.9%
Cc1ccc2c(c1)c(=O)c(C(=O)c1ccncc1)cn2CC(=O)Nc1ccc(C(C)C)cc1,1.2%
COc1ccccc1NC(=O)N1CC=C(c2c[nH]c3ccccc23)CC1,-23.1%
CCOc1ccccc1C(=O)NC1(C(F)(F)F)NC(=O)N(CCc2ccc(OC)c(OC)c2)C1=O (stereo not given),0.1%
Cc1cc(Cl)ccc1Nc1ncnc2onc(C)c12,0.8%
COc1ccccc1NC(=O)c1cc(=O)c2ccc(C)c(C)c2o1,1.3%
Cc1ccc(Cl)cc1N1CCN(CCCNC(=O)Cn2ncc3c([nH]c4ccccc43)c2=O)CC1,0.9%
CCc1ccccc1NC(=O)Nc1nnc(N(C)Cc2ccccc2)s1,-35.1%
Cc1ccccc1C(=O)NC1(C(F)(F)F)C(=O)Nc2c1c(=O)[nH]c(=O)n2-c1ccc(F)cc1 (stereo not given),-0.2%
COc1ccc(-c2cc(C(C)=O)c(C)n2CCC(=O)NCc2ccc(C)cc2)cc1,3.2%

# Seven entries out of the list, sorted by length of the SMILES, ascending:
SMILES,miR-21 FLuc
Cn1nnc2c(NCCc3ccccc3)ncnc21,-12.0%
CCc1ccccc1NC(=O)Nc1nnc(N(C)Cc2ccccc2)s1,-35.1%
O=C(NC1CC(=O)N(c2ccc(Cl)cc2)C1)c1cc2ccccc2o1 (stereo not given),-0.1%
COc1ccc(-c2cc(C(C)=O)c(C)n2CCC(=O)NCc2ccc(C)cc2)cc1,3.2%
O=C(NCc1cccc(Cl)c1)C1CCN(c2nn3cc(-c4ccc(F)cc4)nc3s2)CC1,-30.4%
Cc1ccc2c(c1)c(=O)c(C(=O)c1ccncc1)cn2CC(=O)Nc1ccc(C(C)C)cc1,1.2%
Cc1ccc(Cl)cc1N1CCN(CCCNC(=O)Cn2ncc3c([nH]c4ccccc43)c2=O)CC1,0.9%

# Going on with the list:
SMILES,miR-21 FLuc
CC(=O)c1cc(-c2ccccc2)n(CCC(=O)Nc2ccc(C(C)C)cc2)c1C,?
CC(=O)c1ccc(NC(=O)c2cc3sccc3n2Cc2ccc(F)cc2)cc1,1.3%
O=C(Cn1nc(N2CCN(c3ccccc3)CC2)ccc1=O)Nc1ccc(F)cc1F,-10.8%
O=C(NCc1cccc(F)c1)c1ccc2nc(N3CCCCC3)sc2c1,-49.1%
COc1cc(C(=O)N2CCc3c([nH]c4ccccc34)C2c2ccccc2)cc(OC)c1OC (stereo not given),26.5%
O=C(CSc1nccn1Cc1ccccc1)Nc1nc2ccccc2s1,-8.4%
CC(C)Cn1cc(NC(=O)NCc2ccccc2)c2ccccc2c1=O,-6.2%
CCc1ccc(-n2nc(CO)c(C(=O)NC)n2)cc1,-55.5%
COc1ccccc1NC(=O)C1CCC(CNS(=O)(=O)c2ccc3c(c2)CC(C)N3C(C)=O)CC1 (stereo not given),?
O=C(CN1C(=O)C2(SCC(=O)N2c2ccccc2)c2ccccc21)NCc1ccccc1Cl (stereo not given),-0.6%
Cc1ccccc1CNC(=O)C1CCCCN1S(=O)(=O)c1ccc(F)cc1 (stereo not given),5.8%
C=CCc1ccccc1OCc1nc2ccccc2n1CC,-2.0%
CCn1c(C(=O)NCc2ccc(OC)cc2)cc2sc(Cl)cc21,12.8%
Cc1cc(=O)n(C(C)C(=O)NCc2ccccc2Cl)c2c1c(C)nn2-c1ccccc1 (stereo not given),1.0%
Cc1ccc(-n2c(=O)c3c(c4cc(C)ccc4n3C)n(CC(=O)N3CCCC3)c2=O)cc1,-1.9%
Cc1ccc(S(=O)(=O)CC(=O)Nc2sc3c(c2C#N)CCCCC3)cc1,-3.2%
CCOC(=O)c1c(NC(=O)c2cc(-c3cccc(Cl)c3)on2)sc(C)c1C,-1.6%
CCOC(=O)c1[nH]c2ccccc2c1NC(=O)c1ccccc1F,10.7%
CCOC(=O)c1c(C)c(-c2ccccc2)n(CC(=O)NCCc2ccc(C)cc2)c1C,-2.4%
CCc1ccc(-c2nn(CC(=O)Nc3ccccc3C)c3c2cnc2ccc(C)cc23)cc1,-5.1%
CCOc1ccccc1NC(=O)c1c(NCc2cccs2)sc2c1CCCCC2,-6.6%
Cc1nn(CC(=O)Nc2cc(F)ccc2F)c(=O)c2cccn12,-41.6%
COc1ccc(CNC(=O)Cc2c(C)c3cc4c(C)coc4cc3oc2=O)cc1OC,7.2%
CN1CCN(CCCNC(=O)Cn2c(-c3cccs3)cc3cc(Cl)ccc32)CC1,-6.4%
Cc1cn2c(=O)cc(COC(=O)c3ccc(NC(=O)c4ccc(F)cc4)cc3)nc2s1,-5.9%
COc1ccc(C(=O)NNc2ncnc3c2cnn3-c2ccc(C)c(Cl)c2)cc1,-45.2%
CCOc1ccc(C(=O)Nc2c(C(=O)Nc3ccccc3OC)oc3ccccc23)cc1OCC,-15.3%
